Bioassay records from PubChem.
Mtb MbtI inh = MbtI salicylate synthase inhibition | P9WFX0 | purified MbtI enzyme, fluorescence intensity read-out | inhibition, %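 (about 17 µg/mL by stock and volumes)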 | 0.89% of 100,000 active;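 active = above 50% in both replicates, above 80% if mildly self-fluorescent; inactive = the rest, strongly fluorescent compounds included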;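 also: 0% = mean of negative and 100% = mean of positive controls; one replicate is shown; some compounds called inactive have numbers as strong as hits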
Target sequence (P9WFX0 whole entry, looked up): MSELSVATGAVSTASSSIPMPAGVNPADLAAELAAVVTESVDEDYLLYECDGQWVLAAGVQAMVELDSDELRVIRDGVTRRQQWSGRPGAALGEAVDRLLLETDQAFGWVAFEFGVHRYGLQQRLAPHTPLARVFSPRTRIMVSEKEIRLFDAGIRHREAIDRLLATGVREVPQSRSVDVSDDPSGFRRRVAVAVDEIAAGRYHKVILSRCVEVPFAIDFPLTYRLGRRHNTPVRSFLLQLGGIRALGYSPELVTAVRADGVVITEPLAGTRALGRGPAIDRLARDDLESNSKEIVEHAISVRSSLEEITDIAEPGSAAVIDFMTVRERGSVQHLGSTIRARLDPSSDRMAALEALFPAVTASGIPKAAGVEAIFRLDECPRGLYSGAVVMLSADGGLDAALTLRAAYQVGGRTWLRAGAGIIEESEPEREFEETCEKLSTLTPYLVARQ
The depositor's hits bear a star. Not all compounds are listed; the hit share may differ from the screen's.

SMILES | Mtb MbtI inh
COC(=O)c1sc2ccccc2c1C(=O)OC | -8
CCOC(=O)COc1ccc2c(c1)C(=O)CC1(CCCCC1)O2 | -19
CCOc1ccccc1NC(=O)c1cccc(Cl)c1 | -8
CC(c1ccccc1)c1nnc(NC(=O)c2ccc3c(c2)OCO3)s1 (stereo not given) | 0
O=C(O)Cn1nc(-c2ccccc2)c2ccccc21 | -26
CC(=O)Nc1ccc2c(c1)N(C(C)=O)c1ccccc1CC2 | -4
COc1ccc(C2C(C(=O)N3CCCCC3)c3ccccc3C(=O)N2C)cc1 (stereo not given) | 0
CCOC(=O)c1ccc(-c2coc3cc(O)c(CC)cc3c2=O)o1 | 3
CC(=O)Nc1cccc(-c2nc3ccccc3s2)c1C | -6
CCOC(=O)CCCn1nc(C)n2c(cc3sccc32)c1=O | -11
COc1ccc(Nc2nnc(-c3ccc(C(=O)NCCO)cc3)c3ccccc23)cc1 | 3
CCC1(C)CC(C(=O)c2ccc(OC)cc2)CCO1 (stereo not given) | -11
CC(=O)NCc1nc2ccccc2[nH]1 | -5
COc1ccc(CCNC(=O)c2cc(Sc3ccc(F)cc3)nc3ccccc23)cc1OC | 13
CCCC(C(=O)O)N1C(=O)c2ccccc2C1=O (stereo not given) | -3
CC(C)C(=O)Oc1ccc2c(=O)c(Oc3ccccc3Br)coc2c1 | -2
Cc1ccccc1NC(=O)COc1ccccc1C | -12
Cc1cc(Oc2ccccc2)nc(N)n1 | -5
Cc1ccc(S(=O)(=O)Nc2cccc(C(=O)NC(C)(C)CO)c2)cc1 | 0
CN(C)CCN1CCc2ccccc21 | -7

Ordered by count of non-hydrogen atoms (high to low): some entries from above.
SMILES | Mtb MbtI inh
COc1ccc(Nc2nnc(-c3ccc(C(=O)NCCO)cc3)c3ccccc23)cc1 | 3
CCC1(C)CC(C(=O)c2ccc(OC)cc2)CCO1 (stereo not given) | -11
CCCC(C(=O)O)N1C(=O)c2ccccc2C1=O (stereo not given) | -3
Cc1cc(Oc2ccccc2)nc(N)n1 | -5

The listing continues:
SMILES | Mtb MbtI inh
Cn1cnc2cc(-c3n[nH]c(=O)c4ccccc34)ccc21 | -6
O=C(Nc1cccc(OC(=O)c2cccnc2)c1)c1cccnc1 | -4
CC(c1ccccc1)N1CC(C(=O)O)CC1=O (stereo not given) | -6
CCOC(=O)c1ccc2nc3c(nc2c1)C(=O)c1ccccc1C3=O | 0
CCOC(=O)c1sc2nc3n(c(=O)c2c1C)CCC3 | -10
CC1=Nc2ccccc2N=C(NC(=O)CSc2nnnn2-c2ccccc2)C1c1ccccc1 (stereo not given) | -1
CC(c1ccccc1)C(CC(=O)O)C(=O)NC1CCCCC1 (stereo not given) | -15
O=C(CCc1ccccc1)NCCOc1ccccc1 | 1
CC(C)c1ccc(NC(=O)C(c2ccccc2)N(C)c2ccccc2)cc1 (stereo not given) | 2
O=C(NC1CCCCC1)C(c1ccccc1)N1CCc2ccccc21 (stereo not given) | 7
CN(C)c1ccc(-c2ccc(N(C)C)cc2)cc1 | -52
CCc1nn2c(C(=O)NCc3ccccc3)cc(=O)nc2s1 | 92
CCN(CC)c1ccc2cc(-c3nc4ccccc4n3C)c(=O)oc2c1 | -9
CCc1ccc(NC(=S)N(CCCN2CCCC2)Cc2ccco2)cc1 | 4
O=S1(=O)CC(NCc2ccccc2)C(Nc2ccc(Cl)cc2)C1 (stereo not given) | -15
COc1ccc(Cl)cc1S(=O)(=O)Nc1ccc(CC(=O)O)cc1 | -14
Cc1cc(C(=O)O)sc1C | -12
Nc1c(C(=O)O)cnn1-c1ccccc1 | -3
O=C1c2ccccc2-c2nc3ncnn3c(-c3ccccc3)c21 | -8
COc1ccc2c(c1)OC1=C(C(=O)CCC1)C2C1=C(O)CCCC1=O (stereo not given) | -5
O=C(CCN1C(=O)C2C3C=CC(C3)C2C1=O)NC(c1ccccc1)c1ccccc1 (stereo not given) | -5
CCNc1nc(SC)ncc1F | -2
CCC(C)(C(=O)NC1CCCCC1)N(C(=O)c1ccccn1)c1ccccc1 (stereo not given) | -14
Cn1c(=O)c2c(nc(Oc3ccc4c(c3)OCO4)n2Cc2ccc(F)cc2)n(C)c1=O | -9
COC(=O)c1ccccc1NC(=O)COC(=O)c1ccn(C)n1 | -13
Cc1ccc(CN(C)CCc2ccccn2)cc1 | -2
COc1ccc(C2C(C(=O)Nc3ccc(OC)c(OC)c3)c3ccccc3C(=O)N2C)cc1 (stereo not given) | 0
Cc1nn(Cc2ccccc2)c2ncccc12 | 114
O=C(c1ccco1)N(O)c1ccccc1 | 5
Cc1cccc2c1OC(=O)CC2c1ccccc1 (stereo not given) | -3

Grouped by structure, the entries above with an aryl methoxy group
SMILES | Mtb MbtI inh
COc1ccc(C2C(C(=O)N3CCCCC3)c3ccccc3C(=O)N2C)cc1 (stereo not given) | 0
COc1ccc(Nc2nnc(-c3ccc(C(=O)NCCO)cc3)c3ccccc23)cc1 | 3
CCC1(C)CC(C(=O)c2ccc(OC)cc2)CCO1 (stereo not given) | -11
COc1ccc(CCNC(=O)c2cc(Sc3ccc(F)cc3)nc3ccccc23)cc1OC | 13
COc1ccc(Cl)cc1S(=O)(=O)Nc1ccc(CC(=O)O)cc1 | -14
COc1ccc2c(c1)OC1=C(C(=O)CCC1)C2C1=C(O)CCCC1=O (stereo not given) | -5
COc1ccc(C2C(C(=O)Nc3ccc(OC)c(OC)c3)c3ccccc3C(=O)N2C)cc1 (stereo not given) | 0

Further records.
SMILES | Mtb MbtI inh
CC1CC(C(O)c2ccccn2)C(=O)C(C(O)c2ccccn2)C1 (stereo not given) | 0
COCc1cc(C)c2c(N)c(C#N)sc2n1 | -14
COc1ccc(C(=O)[C@@H]2[C@@H](c3cccs3)C(C#N)(C#N)[C@H]3C=Cc4ccccc4N23)cc1 | -4
N/C(=N\O)c1cn(Cc2ccccc2Cl)c2ccccc12 | 2
CCC(=O)Nc1nc2ccccc2s1 | 8
CC(C)Cc1cc(C(=O)O)n[nH]1 | -5
O=c1ccn2c(n1)OC1[C@@H](O)[C@@H](CO)O[C@H]12 (stereo not given in full) | -2
CC1CC(O)(c2ccccc2)C(C)CN1C (stereo not given) | -1
OC(CN1CCCC1)Cn1c2ccccc2c2ccccc21 (stereo not given) | -18
O=C(OC/C(=N\O)c1ccccc1)c1ccc(Br)cc1 | -3
O=C1c2ccccc2C(=O)N1c1ccc(OCc2ccccc2)cc1 | -6
COc1cc2c(C(=O)NCCC(C)C)cn(C)c(=O)c2cc1OC | -1
CSC1=NC2(C)CCCCC2C12C=CC(=O)C=C2 (stereo not given) | -3
CCN(CC)C(=O)c1c(-c2ccccc2)oc2ccc(O)cc12 | -170
CC1C(=O)CCN(CCCO)C1C (stereo not given) | -4
O=C(NCCCN1CCOCC1)C1C2C=CC3(CN(Cc4cccs4)C(=O)C13)O2 (stereo not given) | -10
O=C(CSc1ccccc1C(=O)O)Nc1ccccc1 | 0
COc1ccc(N2C(=O)CCC(C(=O)N3CCCCC3)C2c2ccc(OC)c(OC)c2)cc1 (stereo not given) | -5
Nc1nonc1-c1nnnn1CC(=O)N1CCOCC1 | -5
COc1ccc(-c2ccc(=O)[nH]n2)cc1 | 8
O=C(Nc1c[nH]c(=O)[nH]c1=O)c1ccc2c(c1)C(=O)N(c1ccc(C(=O)c3ccccc3)cc1)C2=O | -13
Cc1c(OC(=O)c2ccccc2)ccc2c3c(c(=O)oc12)CCC3 | 7
CC(C)c1ccc(NC(=O)C(c2ccccc2)N2CC(=O)Nc3ccccc32)cc1 (stereo not given) | -4
NC(Cn1cccn1)c1ccccc1 (stereo not given) | -4
Cn1c2c(c(=O)n(C)c1=O)C(CC(=O)O)C(=O)N2 (stereo not given) | 6
CCOc1ccc(CCn2cnc3sc4c(c3c2=N)CCCC4)cc1OCC | 2
O=C(Nc1ccc(F)cc1)C1(c2ccccc2)CCOCC1 | -4
c1csc(COc2ccccc2CNC2CCCCC2)c1 | -5
CCOC(=O)c1oc2ccccc2c1CN1CCN(C)CC1 | -11
CCOc1ccc(CNC(CC(C)C)C(=O)O)cc1 (stereo not given) | -19
COC(=O)c1nc2nc(C)cc(C)n2n1 | -15
O=C(Cn1c(=O)n(-c2ccccc2)c(=O)n1CC(=O)N1CCCCC1)N1CCCCC1 | -5
O=C(O)CSc1cn(Cc2ccccc2)c2ccccc12 | -26
O=C(Nc1cccc(Cl)c1)c1nn(-c2ccc(Cl)cc2)c(=O)c2ccccc12 | -9
CCCN1C(=O)C(Cc2nc3ccccc3c(=O)n2C)c2ccccc21 (stereo not given) | -12
CN(C)S(=O)(=O)c1ccc2oc3nnc(SCC(N)=O)n3c2c1 | 43
CCC(=O)Nc1ccc(-c2nc3cc(Cl)ccc3o2)cc1 | -173
COc1cc2c3c(c1OC)C1(C=CC(=O)C=C1)CC3N(C)CC2 (stereo not given) | 0
O=c1n(-c2ccccc2)c(=O)n2n1CCCC2 | -11
O=C(Oc1ccccc1)c1ccccc1F | -5
CCOc1ccccc1CNC(=O)CCSCc1ccccc1Cl | -1
COc1cc2cccc(OC)c(=O)c2c(OC)c1OC | -15
CC(C)Nc1ncnc2c1cnn2-c1ccccc1 | -9
O=C1CC(N2CCCCC2)C=C1Nc1ccccc1 (stereo not given) | -1
COc1ccc2cc(C#N)c(Cl)nc2c1 | -98
CC(=O)NS(=O)(=O)c1ccc(NC(=O)Cn2cnc3c2c(=O)n(C)c(=O)n3C)cc1 | 1
CC(=O)Nc1nc(CC(=O)O)cs1 | -6
COC(=O)c1c(-c2ccc(F)cc2)noc1N | 1
CC(=O)OC1CCNC2CCCCC21 (stereo not given) | -10
Cn1c(/N=C(\N)c2ccccc2)nc2ccccc21 | -11

Quoted at random: 5 records from the list.
SMILES | Mtb MbtI inh
CC(C)Nc1ncnc2c1cnn2-c1ccccc1 | -9
CC(=O)Nc1nc(CC(=O)O)cs1 | -6
O=C1CC(N2CCCCC2)C=C1Nc1ccccc1 (stereo not given) | -1
CC(=O)OC1CCNC2CCCCC21 (stereo not given) | -10
COC(=O)c1c(-c2ccc(F)cc2)noc1N | 1

Going on with the list:
SMILES | Mtb MbtI inh
O=C(NC1CC1)C1CSC(c2cccnc2)=N1 (stereo not given) | 0
CN(C)c1ccnc2sc3c(N(CCO)CCO)ncnc3c12 | -4
CCn1c(C(=O)O)c(CC(=O)Nc2ccccc2OC)c2ccccc21 | -6
CC(C(=O)O)n1nc(-c2ccccc2)c2cc(Cl)ccc21 (stereo not given) | -29
CCC(C(=O)Nc1cccc(OC)c1)n1nc(-c2ccc(OC)cc2)ccc1=O (stereo not given) | 7
O=C1c2ccccc2C(=O)N1c1ccc(S(=O)(=O)Nc2ccc(F)cc2)cc1 | 3
COc1ccccc1NC(=O)Cc1cccs1 | 3
CN(CCO)S(=O)(=O)c1ccc2c(c1)oc(=O)c1cc(S(=O)(=O)N(C)CCO)ccc12 | 0
N#CCCC1(CCC#N)CCCC(CCC#N)(CCC#N)C1=O | -15
Cc1cc(N2CCC(C)CC2)nc2ccc(NC(=O)c3ccc4c(c3)OCO4)cc12 | -15
COc1ccc(-n2nc(C(=O)NCC(=O)NC3CCCCCC3)c3ccccc3c2=O)cc1Cl | 12
CN(C(=O)c1cc2c(=O)oc3ccccc3c2s1)c1ccccc1Cl | 0
O=C(NCCN1CCCC1)c1ccc(F)cc1 | -14
CC(=O)OC1(C#CCN2CCCC[C@H]2c2cccnc2)CCCCC1 | -10
CCc1oc(C(=O)O)cc1CN(CC)CC | -18
CCOC(=O)CSc1nnnn1-c1ccc2c(c1)OCO2 | -3
O=C(Nc1ccc2nn(-c3cccc(Cl)c3)nc2c1)c1ccco1 | -8
N#CCOc1ccc2c3c(c(=O)oc2c1)CCC3 | -62
CC(CN1CCCC1)OC(=O)c1ccc(Br)cc1 (stereo not given) | -11
Cc1ccc(CCNC(=O)CSCc2ccc(F)cc2)cc1 | -9
CCc1ccc(NC(=O)CCCN2C(=S)NC(C)(C)CC2C)cc1 (stereo not given) | 5
CCc1ccc2nc3nc(C)cc(C)c3c(N)c2c1 | 56
COC(=O)CCS(=O)(=O)c1cccs1 | -11
O=C(O)C1CN=C(Cc2ccccc2)N1 (stereo not given) | -4
COc1ccc(F)cc1S(=O)(=O)NC(Cc1ccccc1)C(N)=O (stereo not given) | 4
CCn1c2c(c3cc(C)ccc31)CCCC2=O | -9
O=C(c1ccccc1)c1cc(Br)ccc1O | -3
CCOC(=O)c1cc(=O)cc(C(=O)OCC)o1 | 4
COC(=O)CS(=O)(=O)c1cc(Br)cc2c1N(C(C)=O)CC2 | 2
CC1(C)C(=O)OC(c2ccccc2)C(C)(C)C1=O (stereo not given) | -8
CC1CCc2ccccc2N1S(=O)(=O)c1cccs1 (stereo not given) | -7
O=C(O)C1CCC(=O)N1C1c2ccccc2Oc2ccccc21 (stereo not given) | 0
N#Cc1c(NC(=O)CSC2=NCCS2)sc2c1CCCC2 | -14
CCOc1ccc(-c2cc(C(N)=O)on2)cc1 | -6
O=C1C=C(NCC2CCCO2)C2(CCCCC2)O1 (stereo not given) | -2
O=C(CN1C(=O)C2C3C=CC(C3)C2C1=O)Nc1cccc(F)c1 (stereo not given) | 1
Nc1nc2c3ccccc3nc(Cc3ccccc3)n2n1 | -53
O=C(NCc1ccccc1)c1ccc2c(=O)n3c(nc2c1)CCCCC3 | 15
O=C(Cn1ccc2ccccc2c1=O)NCCC(=O)NC1CC1 | 3
O=C(O)COc1ccc(C(=O)Cc2ccc3c(c2)OCCCO3)c(O)c1 | -1
COC(=O)C1C(=O)OC(C)(C)C2CCC(C)CC12 (stereo not given) | -16
O=c1c2ccccc2nc(-c2ccccc2)n1-c1ccc(O)cc1 | -3
O=c1nc(N2CCCCCC2)nc(N2CCCCCC2)[nH]1 | -2
Cc1cccc(C(=O)OCCN2CCCCC2)c1 | -10
Nc1nc2ccc(C(=O)N3CCCCC3)cc2s1 | -2
O=C(CCCn1ncn2c(cc3occc32)c1=O)NC1CCCCCC1 | -7
C=CCC(C)(NCc1ccccc1)c1cccs1 (stereo not given) | -4
Cc1ccccc1CSCCC(=O)NCc1ccccc1 | -13
CC1(C)CCCC(C)(C#CCN2CCCC(c3cccnc3)C2)O1 (stereo not given) | 0
COc1ccccc1-c1cc(C(F)(F)F)nc(S(=O)(=O)CCCC(=O)N2CCCCC2C)n1 (stereo not given) | 103
